15-hLO inh: inhibitors of human 15-lipoxygenase (ALOX15); Potency, µM (doses to about 57.1 µM), for inactives: top-dose activity change, negative = inhibition, most hits filed as inhibitors; 1.4% of 74,000 active; purified 15hLO-1, xylenol orange hydroperoxide absorbance; P16050; note: potency is the fitted concentration of half-maximal effect; % is set by controls: 0 for no effect and ±100 for the full control effect; nearly all actives have a fitted effect of over 55% in size
Target sequence (P16050 whole entry, looked up): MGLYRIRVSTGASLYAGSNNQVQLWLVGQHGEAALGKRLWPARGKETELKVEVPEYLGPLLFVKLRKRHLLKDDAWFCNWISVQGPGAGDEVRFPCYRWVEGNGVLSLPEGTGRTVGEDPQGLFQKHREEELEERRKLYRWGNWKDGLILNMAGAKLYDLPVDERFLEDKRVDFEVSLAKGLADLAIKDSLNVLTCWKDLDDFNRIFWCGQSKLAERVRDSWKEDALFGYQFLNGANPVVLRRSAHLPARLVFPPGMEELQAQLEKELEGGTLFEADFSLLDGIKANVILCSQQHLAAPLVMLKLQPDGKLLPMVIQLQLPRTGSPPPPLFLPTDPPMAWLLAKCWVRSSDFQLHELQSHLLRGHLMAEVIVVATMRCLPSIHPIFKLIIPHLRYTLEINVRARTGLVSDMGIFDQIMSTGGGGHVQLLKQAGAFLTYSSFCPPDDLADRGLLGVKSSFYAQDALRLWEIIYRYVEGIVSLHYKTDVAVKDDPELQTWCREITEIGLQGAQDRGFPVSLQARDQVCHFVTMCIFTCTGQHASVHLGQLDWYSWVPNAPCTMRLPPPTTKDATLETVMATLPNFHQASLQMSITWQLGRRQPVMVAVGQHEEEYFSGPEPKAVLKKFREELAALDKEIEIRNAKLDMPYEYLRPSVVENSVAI
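Inhibition is scored from a chromogenic endpoint. After 15 min enzyme-compound contact, arachidonic acid (50 uM final) reacts 6 min with 40 nM 15hLO-1 at room temperature, then Fe-XO reagent is added for 30 min and absorbance ratio recorded.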
HBB splice mod: modulators of hemoglobin beta chain splicing. HBB splicing reporter cell assay, activation; EGFP reporter with mutant IVS2-654 intron; response scale: normalised to 500 nM splice-correcting PNA. Potency, µM (highest dose often 46.1 µM), without a hit: at the highest dose activation, usual class: activators. 0.06% of 65,000 active. AID 925; note: potency is the fitted concentration of half-maximal effect; 0% is about no effect
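HeLa cells stably expressing EGFP interrupted by mutant beta-globin intron 2 (IVS2-654), 500/well in 2% FCS. Treated with compound for 2 days at 37C. Splicing correction scored as total well GFP intensity (488 nm excitation, 500-520 nm emission); 500 nM antisense PNA served as control.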
Hsp90 Hop PPI: changes Hsp90-Hop TPR2A binding signal, up or down. AID 595. AlphaScreen TPR2A-His6 binding biotin-Hsp90 C-terminal peptide. Potency, µM (series often up to 57 µM), inactives show top-dose activity change, negative = inhibition. 0.44% of 71,000 active; active = well fitted curve in either direction with a large enough effect; inconclusive = small, poorly fitted or top-dose-only effect, or another doubt; note: potency is the fitted concentration of half-maximal effect; % is set by controls: 0 for no effect and ±100 for the full control effect; many of its hits are not listed in these tables
CRE Fsk mod: modulators of forskolin-stimulated CRE signaling in CHO cells | 2.5% of 71,000 active | Potency, µM (top dose mostly 38.2 µM), for the others: at the highest dose activity change, negative = inhibition, actives largely listed as activators | CHO CRE-bla reporter (cAMP response element driving beta-lactamase), forskolin EC10, beta-lactamase ratio; active = well fitted activation curve with a large enough effect in the signal ratio, with a control signal flat, not every such curve was filed as active; inconclusive = small, poorly fitted or top-dose-only effect, or effect the other way, or a change in a side signal; the % refers to the signal ratio; note: potency is the fitted concentration of half-maximal effect; % of control where 0% means no effect
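Modulation of forskolin signalling: compounds in titration series added with EC10 NKH 477 to CHO cells carrying a CRE-driven beta-lactamase reporter, 3 h, 37C. CCF4 FRET ratio (460/530 nm, ex 405 nm) gives %activity and AC50.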
BRCT inh red: BRCT-phosphoprotein interaction inhibition (red fluorophore); P38398; 0.03% of 75,000 active; BRCT-phosphopeptide binding, red fluorescence polarization; Potency, µM (highest dose often 76.9 µM), for inactives: at the top dose activity change, negative = inhibition, usual class: inhibitors; note: % is set by controls: 0 for no effect and ±100 for the full control effect
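Rhodamine-labelled pBACH1 10-mer (100 nM) bound to BRCT domain (100 nM) at pH 7.3; compounds incubated 12 min room temperature, polarization read. Free peptide defines full inhibition; unlabelled decapeptide titrated as control.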
BRCT inh green: blocks human BRCA1 BRCT binding to phosphopeptide, green readout; BRCA1 BRCT-phosphopeptide binding, green fluorescence polarization; Potency, µM (highest dose often 76.9 µM), for inactives: at the highest dose activity change, negative = inhibition, most hits filed as inhibitors; 0.05% of 75,000 active; AID 875;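 note: potency is the fitted concentration of half-maximal effect; plate controls were peptide without protein for full effect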
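Fluorescence polarization: His-tagged BRCT (~35 kDa BRCA1 C-terminus, 250 nM) bound to 100 nM fluorescein-labeled phosphorylated 10-aa BACH1 peptide, pH 7.3 phosphate buffer with DTT and Tween 20. Compounds incubated 12 min at room temperature; inhibition read as lowered polarization.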
UbGFP stabilizer: inhibits proteasome, raising ubiquitin-GFP reporter fluorescence; Ubiquitin-GFP reporter cells, proteasome inhibition, GFP fluorescence; response scale: untreated = 0%, 10 µM MG-132 = 100%; 67,000 tested, under 10 active; AID 526; Potency, µM (titrated, usually from 45.9 µM), without a hit: at the top dose activation (GFP accumulation), usual class: activators; active = well fitted activation curve with a large enough effect, not every such curve was filed as active; inconclusive = small, poorly fitted or top-dose-only effect, or another doubt; inactive = no such curve, though single readings can be large or run the other way; note: potency is the fitted concentration of half-maximal effect
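Proteasome block read as GFP accumulation: ubiquitin(G76V)-GFP U2OS cells exposed to compound (2.9 nM–46 uM) for 4 hr at 37 C. Normalization used untreated cells as 0% and 10 uM MG-132 as 100%; concentration-response curves fitted.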
GFP derepression: derepresses silenced GFP locus in mouse C127i cells. Potency, µM (titrated, usually from 46.1 µM), for the others: top-dose GFP derepression (activation). 0.09% of 68,000 active. mouse C127i GFP locus derepression, cytometry, 30 h. AID 597; note: % of control where 0% means no effect
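Murine C127i mammary cells carrying a silenced, stably integrated CMV-driven GFP reporter were treated with compound for 30 hours at 37 C. After PBS washes, GFP-positive cells were counted by laser-scanning microplate cytometry.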
Pol III holo inh: inhibitors of bacterial DNA polymerase III holoenzyme; Potency, µM (highest dose often 57.1 µM), for inactives: at the highest dose activity change, negative = inhibition; 0.25% of 71,000 active; reconstituted DNA polymerase III holoenzyme replication, biochemical; note: potency is the fitted concentration of half-maximal effect; % is set by controls: 0 for no effect and ±100 for the full control effect
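Reconstituted *E. coli* holoenzyme (0.35 nM Pol III, 1 nM beta, 154 nM SSB, 2 nM primase) was preincubated with compound for 15 min at RT. Synthesis on 1.4 nM ssM13Gori ran 35 min, then was stopped with PicoGreen/EDTA and read as dsDNA fluorescence.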
USP2a inhib: blocks human ubiquitin-specific protease USP2a. AID 927. 0.1% of 60,000 active. USP2a enzymatic assay, qHTS inhibition. Potency, µM (titrated, usually from 38.3 µM), inactives show at the top dose activity change, negative = inhibition, most hits filed as inhibitors;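 note: potency is the fitted concentration of half-maximal effect; nearly all actives have a fitted effect of over 60% in size; plate controls were DMSO for no effect and NEM full inhibition control for full effect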
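20 nM USP2 core + cpd, 30 min RT; add 20 nM Ub-PLA2/20 uM NBD C6-HPC; read Ex460/Em535 at 0 h and 2.5 h. Normalized to NEM; qHTS curve fit/classification.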
An asterisk follows results filed as active; ? = inconclusive; nt = no result given; [ ] = dose if it differs, or a comment. Unless noted, calls come from the whole dose curve; as a rule, active = well fitted curve in the direction sought with a large enough effect; inconclusive = small, poorly fitted or top-dose-only effect, or another doubt; inactive = no such curve, though single readings can be large; an effect the other way counts as inactive or inconclusive. Not all compounds are listed; the hit share may differ from the screen's.

SMILES | 15-hLO inh | HBB splice mod | Hsp90 Hop PPI | CRE Fsk mod | BRCT inh red | BRCT inh green | UbGFP stabilizer | GFP derepression | Pol III holo inh | USP2a inhib
Cc1noc(C)c1CN1C(=O)NC(Cc2ccccc2)(Cc2ccccc2)C1=O | -1.8% | 1.0% | -0.1% | ? | 0.6% | -0.4% | 0.4% | -1.8% | 0.6% | 4.4%
COC(=O)c1sc(=S)n(-c2ccccc2)c1N | ? | -0.8% | -6.0% | 24.6% | 0.8% | 0.1% | -3.3% | 1.6% | 4.3% | -7.8%
COCCOC(=O)c1c(C)oc2ccc(NS(=O)(=O)c3ccc(C(=O)O)cc3)cc12 | -4.9% | nt | -4.4% | 0.2% | 1.0% | -1.8% | 4.8% | -2.5% | -7.9% | -5.9%
Nc1nc(-c2cccs2)c(NC(=O)c2ccccc2)s1 | 20µM* | nt | -18.7% | 1.7% | -0.3% | -0.2% | 3.9% | 1.3% | -3.1% | 15.3%
Cc1cc(O)cc(=O)n1Cc1ccco1 | 4.8% | 2.0%[1.84 µM] | -2.1% | 0.4% | 0.0% | -3.5% | 7.1% | -2.9% | -1.8% | 0.1%
COc1cc2c(cc1OC)CN(C(=O)c1cccs1)CC2 | -0.6% | 0.2%[1.84 µM] | -2.6% | ? | -0.2% | 1.9% | -2.9% | 2.0% | -2.0% | 1.6%
CN(C)c1ncc2nc(-c3ccc(F)cc3)c(=O)n(CCc3ccccc3)c2n1 | 4.8% | 1.6% | -2.6% | ? | 0.4% | -0.2% | -8.0% | 10.8%[9.22 µM] | -8.8% | -6.6%
CC1(C)S[C@@H]2[C@H](NC(=O)[C@H](N)c3ccccc3)C(=O)N2[C@H]1C(=O)O | -1.5% | -1.5% | -1.6% | -2.7% | 1.0% | 0.3% | nt | -3.8%[20.6 µM] | -8.8% | nt
Clc1ccc(Cl)c(-c2nn3c(COc4ccccc4)nnc3s2)c1 | 10µM* | 0.5% | 0.3% | -10.1% | 1.5% | 0.3% | 2.5% | 2.6% | 0.2% | 4.5%
CCOC(=O)C1CCCN(c2cc(=O)n(-c3ccccc3Cl)c(=O)[nH]2)C1 (stereo unspecified) | 8.8% | -0.5% | -0.3% | 2.8% | -0.5% | -2.2% | -4.4% | nt | -8.7% | nt
Cn1c(SCCOc2ccccc2Cl)nnc1-c1ccncc1 | 2.5% | 1.7% | -3.3% | ? | 0.7% | -3.1% | 12.5% | 4.3% | 0.8% | -4.1%
Cc1cc(-c2nn3c(C)nnc3s2)ccc1NC(=O)C(C)(C)C | 5.4% | 0.2%[57.5 µM] | 17.7% | 7.5% | 0.3% | 0.0% | 5.9% | 1.3% | 1.9% | 10.8%
CCOC(=O)N1CCN(Cc2cc(=O)oc3ccc(Cl)cc23)CC1 | -3.3% | -1.8% | 0.0% | 1.2% | 1.0% | -1.4% | 16.6% | 2.5% | -3.8% | 8.0%
COc1ccccc1CNc1nc(-c2cccc(C#N)c2)nc2ccccc12 | -10.7% | -0.6% | ? | ? | -0.6% | -0.4% | 0.4% | 2.2%[9.22 µM] | -4.9% | ?
CC(Sc1ccccn1)C(=O)Nc1ccccc1 (stereo unspecified) | -27.7% | -1.1% | -4.7% | ? | -0.9% | -4.0% | -3.1% | 1.6% | 0.5% | -8.4%
O=C(Nc1ccc(NC(=O)c2cccs2)cn1)c1ccco1 | -8.6% | nt | 0.3% | -0.5% | 1.0% | -1.5% | 1.2% | -1.7% | -13.0% | 26.6%
CCN(CC)S(=O)(=O)c1ccc(-c2nnc(SCC(=O)Nc3ccc4c(c3)OCO4)o2)cc1 | -18.7% | nt | 1.4% | 3.7% | -2.0% | -2.4% | 2.7% | -1.9% | -4.6% | 122.5%[activator]
COc1ccccc1-c1nn2c(C3COc4ccccc4O3)nnc2s1 (stereo unspecified) | -13.7% | 2.5%[57.5 µM] | 1.2% | ? | -0.3% | 3.3% | 3.5% | 4.7% | 1.7% | ?
CCc1c(C)sc(NC(=O)c2cc(-c3ccco3)on2)c1C#N | -14.1% | -5.1% | -6.6% | ? | 0.3% | 0.7% | 0.0% | 0.0% | -0.6% | 19.3%
N#CCCSc1ccccc1NC(=O)c1ccc(S(=O)(=O)N2CCCC2)cc1 | -22.5% | -1.6% | -2.9% | -2.9% | -0.4% | -0.2% | -3.4% | 0.0% | -7.2% | 4.7%

Quoted at random: two records from the list.
SMILES | 15-hLO inh | HBB splice mod | Hsp90 Hop PPI | CRE Fsk mod | BRCT inh red | BRCT inh green | UbGFP stabilizer | GFP derepression | Pol III holo inh | USP2a inhib
CCN(CC)S(=O)(=O)c1ccc(-c2nnc(SCC(=O)Nc3ccc4c(c3)OCO4)o2)cc1 | -18.7% | nt | 1.4% | 3.7% | -2.0% | -2.4% | 2.7% | -1.9% | -4.6% | 122.5%[activator]
CCOC(=O)N1CCN(Cc2cc(=O)oc3ccc(Cl)cc23)CC1 | -3.3% | -1.8% | 0.0% | 1.2% | 1.0% | -1.4% | 16.6% | 2.5% | -3.8% | 8.0%

Other results follow.
SMILES | 15-hLO inh | HBB splice mod | Hsp90 Hop PPI | CRE Fsk mod | BRCT inh red | BRCT inh green | UbGFP stabilizer | GFP derepression | Pol III holo inh | USP2a inhib
CC(=O)n1c2ccccc2c2nc(NC(C)C)sc21 | ? | -3.9%[57.5 µM] | -21.0% | 27.0% | -1.1% | 0.8% | -1.8% | 0.0% | -2.6% | 0.6%
CN(C)S(=O)(=O)c1cccc(-c2nnc(SCc3cc(Cl)cc4c3OCOC4)n2N)c1 | 12.6µM* | -2.6% | -2.0% | ? | -1.5% | 0.7% | 0.9% | 0.0% | -6.3% | 36.5%[activator]
CCOC(=O)c1c(NC(=O)c2noc3c2CCCC3)sc2c1CCCC2 | -8.2% | -0.7% | 0.0% | ? | 0.1% | -1.4% | -8.9% | 0.0% | -0.2% | 6.1%
COC(=O)Cn1c(CN2CCOCC2)nc2c1c(=O)n(C)c(=O)n2C | -20.6% | -1.2% | -4.5% | -13.2% | -3.4% | -4.1% | 7.2% | nt | 9.1% | nt
O=C(CSc1nnc(SCC(=O)c2ccco2)s1)c1ccco1 | -20.3% | -1.9% | -2.1% | -6.4% | -1.9% | -2.5% | 2.8% | 9.9% | -9.2% | 7.3%
CC(C)c1ccc(C2CC(=O)N3CN(Cc4ccco4)CSC3=C2C#N)cc1 (stereo unspecified) | 12.6µM* | -1.8%[0.369 µM] | -7.6% | ? | -1.7% | -0.1% | 0.3% | -1.6% | -5.7% | 47.1%[activator]
Cc1ccc(/C=c2\sc3nc(-c4cccs4)nn3c2=O)o1 | 12.6µM* | 2.3% | -13.5% | -11.0% | -3.6% | 4.8% | 22.5% | 6.0% | -23.7% | 40.6%[activator]
CCOC(=O)c1sc(=S)n(-c2ccccc2OC)c1N | ? | -0.8% | -7.3% | 4.7% | -2.3% | -0.4% | -6.9% | -1.2% | -2.4% | 1.6%
CCCC(=O)Nc1nc2ccc(OCC)cc2s1 | -4.9% | -0.1% | 2.3% | 5.9% | -2.1% | 0.5% | 3.7% | nt | -2.2% | nt
O=C(Nc1nnc(COc2ccccc2)s1)c1ccco1 | 5.6% | 3.5%[0.369 µM] | -1.1% | ? | 1.9% | 0.7% | -0.9% | 2.2% | 1.8% | -4.3%
Clc1ccc(-c2nnc(-c3ccccc3Cl)o2)cc1 | -37.4% | 1.0% | 28.0% | 11.0% | 2.4% | -2.5% | 10.2% | 0.0% | 1.7% | -4.3%
Cc1ccc(-n2c(SCC(N)=O)nnc2-c2ccccn2)cc1C | 17.6% | 2.7% | ? | 13.9% | -0.3% | 2.5% | -2.9% | -2.3% | -9.0% | -5.9%
COc1ccc2nc(NC(=O)C3CCCN3S(=O)(=O)c3ccc(C)cc3)sc2c1 (stereo unspecified) | -23.0% | -0.3% | -4.7% | 2.1% | -1.4% | -2.9% | -1.2% | 0.0% | 3.5% | 27.9%
Cc1c(C)c2ccc(OCc3ccc(C(=O)O)o3)c(C)c2oc1=O | -5.1% | 3.5%[57.5 µM] | 2.5% | ? | -1.0% | 9.6% | 0.0% | -4.3% | -7.9% | 4.6%
CCn1c(SCC(=O)Nc2ccccc2F)nc2c(c1=O)SC(C)C2 (stereo unspecified) | -1.1% | -2.8% | 3.5% | ? | 0.0% | 0.4% | 1.1% | 2.9% | -2.3% | 16.1%
CCOC(=O)c1ccc2nc(C(F)(F)F)[nH]c(=O)c2c1 | 1.7% | -0.4% | 0.6% | ? | -1.0% | -0.6% | -3.4% | -0.1% | -2.4% | -6.2%
COc1ccc(NC(=O)c2ccco2)cc1N | -7.5% | -5.9% | -2.8% | 4.0% | -1.7% | -1.0% | -4.3% | 2.6% | -1.5% | -12.8%
COc1ccc(C(=O)Nc2cc(OC)ccc2OC)cc1 | -17.3% | nt | 2.5% | 7.4% | 1.1% | -2.0% | -1.1% | 1.9% | -4.5% | -12.6%

Source: PubChem BioAssay (National Center for Advancing Translational Sciences (NCATS))
